AF4-AF9 inh: blocks AF4 peptide binding to human AF9; P42568; AlphaScreen, biotin-AF4 peptide binding to FLAG-AF9; inhibition, % at 10 µM; 0.47% of 350,000 active; AID 651704;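 active = every replicate reaching a set inhibition limit, whatever the replicate mean, cut at about 25% in these data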;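 also: 0% = plate neutral control median and 100% = total signal loss; the record names both 10 and 1 µM as test concentration; the first replicate is given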
Target sequence (P42568 whole entry, looked up): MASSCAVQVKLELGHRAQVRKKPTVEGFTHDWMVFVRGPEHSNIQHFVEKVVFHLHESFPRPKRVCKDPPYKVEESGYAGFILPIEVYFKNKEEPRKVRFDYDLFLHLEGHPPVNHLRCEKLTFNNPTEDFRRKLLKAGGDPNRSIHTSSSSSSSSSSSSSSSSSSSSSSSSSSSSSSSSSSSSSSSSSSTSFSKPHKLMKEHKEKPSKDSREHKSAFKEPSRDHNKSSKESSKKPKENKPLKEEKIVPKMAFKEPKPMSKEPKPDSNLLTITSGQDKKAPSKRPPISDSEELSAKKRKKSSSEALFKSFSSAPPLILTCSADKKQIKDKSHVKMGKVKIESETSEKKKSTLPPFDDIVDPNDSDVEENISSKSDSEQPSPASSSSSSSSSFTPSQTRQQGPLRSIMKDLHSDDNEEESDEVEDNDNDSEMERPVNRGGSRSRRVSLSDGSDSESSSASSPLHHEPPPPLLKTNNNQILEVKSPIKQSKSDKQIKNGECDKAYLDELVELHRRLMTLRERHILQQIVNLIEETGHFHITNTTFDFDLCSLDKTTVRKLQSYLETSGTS
FGF22 binding: FGF22 (human) thermal shift binding | calls only at 9.99 µM | AID 651658 | recombinant FGF22 thermal shift, SYPRO orange fluorescence; percent of sucrose octasulfate shift, DMSO zero | 1.5% of 340,000 active | Q9HCT0;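 active = melting point raised past a set limit in the mean and every replicate; three in four hits are not shown here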
Target sequence (Q9HCT0 whole entry, looked up): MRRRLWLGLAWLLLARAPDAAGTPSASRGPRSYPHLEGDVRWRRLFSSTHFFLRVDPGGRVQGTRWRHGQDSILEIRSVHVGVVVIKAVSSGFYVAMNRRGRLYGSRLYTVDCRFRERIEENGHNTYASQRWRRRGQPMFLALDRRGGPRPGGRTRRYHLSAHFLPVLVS
The depositor's hits bear a star; i = inactive. This is a subset; rates above refer to the full screens.

no.	FGF22 binding	AF4-AF9 inh	Molecule
1	i	-1.5	Cc1ccc(S(=O)(=O)Nc2ccc3c(c2)C(=O)N([C@H](C)CO)C[C@H](C)[C@@H](CN(C)Cc2ccncc2)OCCCC[C@@H](C)O3)cc1
2	i	-0.9	COc1ccc(CN(C)C[C@H]2OCCCC[C@H](C)Oc3ccc(NC(=O)c4ccncc4)cc3C(=O)N([C@H](C)CO)C[C@H]2C)cc1
3	i	8.5	CNC[C@H]1Oc2ccc(NS(=O)(=O)c3ccc(C)cc3)cc2C(=O)N([C@H](C)CO)C[C@H]1C
4	i	-2.4	COCCNC(=O)C[C@H]1C[C@@H]2c3cc(NC(=O)Nc4ccccc4)ccc3O[C@@H]2[C@H](CO)O1
5	i	-2.6	CN1CCN(C(=O)C[C@@H]2CC[C@@H](NC(=O)Cc3ccccn3)[C@H](CO)O2)CC1
6	i	-0.8	C[C@@H]1CN([C@@H](C)CO)C(=O)c2cc(NC(=O)Nc3ccccc3)ccc2O[C@@H](C)CCCCO[C@H]1CN(C)S(=O)(=O)c1cn(C)cn1
7	i	0.2	C[C@@H]1CN([C@H](C)CO)C(=O)c2cccc(NC(=O)c3ccncc3)c2O[C@H]1CN(C)S(=O)(=O)c1cccs1
8	i	-3.9	C[C@@H]1CCCCO[C@H](CN(C)Cc2ccc(C(=O)O)cc2)[C@@H](C)CN([C@@H](C)CO)C(=O)c2cc(NC(=O)c3ccccc3)ccc2O1
9	i	-0.8	C[C@@H]1CN([C@H](C)CO)C(=O)Cc2cc(NC(=O)NC3CCCCC3)ccc2O[C@@H]1CN(C)Cc1ccc(C(F)(F)F)cc1
10	i	-9.8	CC(C)NC(=O)Nc1ccc2c(c1)CC(=O)N([C@H](C)CO)C[C@@H](C)[C@@H](CN(C)Cc1ccc(C(=O)O)cc1)O2
11	i	2.5	CCCC(=O)Nc1ccc2c(c1)C(=O)N(C)C[C@H](OC)[C@@H](C)CN(Cc1ccccc1)[C@@H](C)CO2
12	i	-3.9	COc1ccc(CN(C)C[C@H]2Oc3c(NC(=O)NC4CCCCC4)cccc3C(=O)N([C@H](C)CO)C[C@H]2C)cc1
13	i	4.4	C[C@H](CO)N1C[C@H](C)[C@H](CN(C)C(=O)c2cccnc2)Oc2cc(/C=C/c3ccccc3)ccc2S1(=O)=O
14	i	4.6	COc1ccc(NC(=O)N(C)C[C@@H]2OCCCC[C@H](C)Oc3ccc(N(C)C)cc3C(=O)N([C@H](C)CO)C[C@@H]2C)cc1
15	i	-0.2	O=C(N[C@H]1CC[C@@H](CCNS(=O)(=O)c2ccccc2)O[C@H]1CO)c1cnccn1
16	i	1.7	C[C@H]1CN([C@@H](C)CO)C(=O)Cc2cc(NC(=O)Nc3ccc(F)cc3)ccc2O[C@H]1CN(C)S(=O)(=O)c1ccc(Cl)cc1

Compounds above containing fluorine (two):
no.	FGF22 binding	AF4-AF9 inh	Molecule
9	i	-0.8	C[C@@H]1CN([C@H](C)CO)C(=O)Cc2cc(NC(=O)NC3CCCCC3)ccc2O[C@@H]1CN(C)Cc1ccc(C(F)(F)F)cc1
16	i	1.7	C[C@H]1CN([C@@H](C)CO)C(=O)Cc2cc(NC(=O)Nc3ccc(F)cc3)ccc2O[C@H]1CN(C)S(=O)(=O)c1ccc(Cl)cc1

Additional compounds
no.	FGF22 binding	AF4-AF9 inh	Molecule
17	i	-6.3	C[C@@H]1CN([C@@H](C)CO)C(=O)c2cc(-c3cccc(F)c3)cnc2O[C@H]1CN(C)Cc1cncnc1
18	i	-1.9	COCC(=O)N1C[C@@H]2[C@H](c3ccccc31)[C@@H](CO)N2Cc1ccccc1
19	i	0.6	CCCC#Cc1ccc2c(c1)O[C@H](CN(C)C(=O)C1CC1)[C@H](C)CN([C@@H](C)CO)S2(=O)=O
20	i	1.1	COc1ccccc1-c1ccc([C@@H]2[C@H](CO)N3CCCCN(S(=O)(=O)c4cn(C)cn4)C[C@@H]23)cc1
21	i	-6.3	CNC[C@H]1OCCCC[C@H](C)Oc2ccc(NC(=O)Nc3c(C)noc3C)cc2C(=O)N([C@H](C)CO)C[C@H]1C
22	i	0.8	Cc1noc(C)c1S(=O)(=O)Nc1ccc2c(c1)C(=O)N([C@H](C)CO)C[C@H](C)[C@@H](CN(C)S(=O)(=O)c1ccccc1)OCCCC[C@H](C)O2
23	i	2.8	Cc1ccc(S(=O)(=O)N(C)C[C@H]2OCCCC[C@@H](C)Oc3ccc(NS(=O)(=O)c4cn(C)cn4)cc3C(=O)N([C@@H](C)CO)C[C@H]2C)cc1
24	i	-2.8	CC(C)C(=O)Nc1ccc2c(c1)C(=O)N(C)[C@@H]1CC[C@H](CC(=O)NCC3CC3)O[C@H]1CO2
25	i	0.0	C[C@H](CO)N1C[C@H](C)[C@@H](CN(C)Cc2ccc(Oc3ccccc3)cc2)Oc2ccc(NC(=O)Nc3ccc(F)cc3)cc2CC1=O
26	i	4.4	OC[C@@H]1CC[C@@H]2O[C@H](CCc3ccc(-c4ccc(F)cc4)cc3)[C@@H](n3cc(C4CC4)nn3)C[C@@H]2O1
27	i	-8.3	CC(C)CC#Cc1ccc2c(c1)O[C@@H](CN(C)Cc1cccc(F)c1)[C@H](C)CN([C@@H](C)CO)S2(=O)=O
28	i	-2.4	C[C@H]1CN([C@@H](C)CO)C(=O)c2cc(C#CC(C)(C)O)cnc2O[C@@H]1CN(C)C(=O)C1CCC1
29	i	-12	Cc1noc(C)c1S(=O)(=O)Nc1cccc2c1O[C@@H](CN(C)S(=O)(=O)c1ccccc1)[C@@H](C)CN([C@H](C)CO)C2=O
30	i	0.6	O=C(c1ccncc1)N1C[C@H]2[C@@H](c3ccccc31)[C@H](CO)N2C(=O)c1ccccc1F
31	i	-15	COc1cccc(NC(=O)N(C)C[C@H]2Oc3cc(C#Cc4ccc(F)cc4)ccc3S(=O)(=O)N([C@@H](C)CO)C[C@H]2C)c1
32	i	1.2	O=C(C[C@@H]1C[C@H]2c3cc(NS(=O)(=O)c4ccccc4)ccc3O[C@H]2[C@H](CO)O1)NC1CCCC1
33	i	-4.9	CC(=O)N(C)C[C@H]1OCc2ccccc2-c2ccccc2C(=O)N([C@H](C)CO)C[C@H]1C
34	i	7.4	C[C@H]1CN([C@@H](C)CO)S(=O)(=O)c2ccc(-c3ccccc3)cc2O[C@@H]1CN(C)Cc1ccccn1
35	i	2.6	O=C(Nc1ccc(-c2ccccc2)cc1)[C@@H]1[C@@H](CO)[C@@H]2Cn3c(cccc3=O)[C@H]1N2Cc1cncnc1
36	i	4.5	CO[C@@H]1CN(C)C(=O)c2cc(NC(=O)Nc3ccccc3)ccc2OC[C@H](C)N(C(=O)CN(C)C)C[C@H]1C
37	i	1.8	C[C@H](CO)N1C[C@H](C)[C@@H](CN(C)S(C)(=O)=O)Oc2ccc(NC(=O)CCN3CCOCC3)cc2CC1=O
38	i	2.3	C[C@@H]1CN([C@@H](C)CO)S(=O)(=O)c2ccc(C#CC3CC3)cc2O[C@@H]1CN(C)C(=O)c1ccccc1
39	i	-5.5	CC(C)C#Cc1cnc2c(c1)C(=O)N([C@@H](C)CO)C[C@@H](C)[C@@H](CN(C)Cc1cncnc1)O2
40	i	-1.0	C[C@@H]1CN([C@H](C)CO)C(=O)c2cc(NC(=O)C3CCCCC3)ccc2O[C@@H](C)CCCCO[C@H]1CN(C)C(=O)Nc1ccc(F)cc1
41	i	-0.2	C[C@H](CO)N1C[C@H](C)[C@@H](CN(C)Cc2ccccc2)Oc2ccc(NC(=O)C3CC3)cc2C1=O
42	i	1.6	Cc1noc(C)c1NC(=O)N(C)C[C@@H]1Oc2ccc(NC(=O)Nc3ccc(C(F)(F)F)cc3)cc2C(=O)N([C@@H](C)CO)C[C@H]1C
43	i	-0.7	CCCC(=O)Nc1ccc2c(c1)OC[C@@H](C)N(CCC(F)(F)F)C[C@H](C)[C@H](OC)CN(C)C2=O
44	i	-1.5	C[C@@H]1CN([C@@H](C)CO)C(=O)Cc2cc(NC(=O)c3ccncc3)ccc2O[C@H]1CN(C)Cc1ccc(C(=O)O)cc1
45	i	-1.7	C[C@@H]1CN([C@H](C)CO)C(=O)Cc2cc(NC(=O)C3CC3)ccc2O[C@@H]1CN(C)C(=O)Nc1ccc2c(c1)OCO2
46	i	21	COc1ccc2c3c([nH]c2c1)[C@@H](CO)N(C(=O)C1CCCC1)CC31CCN(Cc2cccc(F)c2)CC1
47	i	-5.8	COc1ccc(C#Cc2cnc3c(c2)C(=O)N([C@@H](C)CO)C[C@@H](C)[C@H](CN(C)C(C)=O)O3)cc1
48	i	-1.2	O=C(N[C@@H]1CC[C@H](CCn2cc(C3(O)CCCC3)nn2)O[C@@H]1CO)C1CC1

Molecules shown so far that have a CF3 group:
no.	FGF22 binding	AF4-AF9 inh	Molecule
9	i	-0.8	C[C@@H]1CN([C@H](C)CO)C(=O)Cc2cc(NC(=O)NC3CCCCC3)ccc2O[C@@H]1CN(C)Cc1ccc(C(F)(F)F)cc1
42	i	1.6	Cc1noc(C)c1NC(=O)N(C)C[C@@H]1Oc2ccc(NC(=O)Nc3ccc(C(F)(F)F)cc3)cc2C(=O)N([C@@H](C)CO)C[C@H]1C
43	i	-0.7	CCCC(=O)Nc1ccc2c(c1)OC[C@@H](C)N(CCC(F)(F)F)C[C@H](C)[C@H](OC)CN(C)C2=O

Three compounds from above, arranged by the value under AF4-AF9 inh, smallest number first:
No.	mol	FGF22 binding	AF4-AF9 inh
21	CNC[C@H]1OCCCC[C@H](C)Oc2ccc(NC(=O)Nc3c(C)noc3C)cc2C(=O)N([C@H](C)CO)C[C@H]1C	i	-6.3
8	C[C@@H]1CCCCO[C@H](CN(C)Cc2ccc(C(=O)O)cc2)[C@@H](C)CN([C@@H](C)CO)C(=O)c2cc(NC(=O)c3ccccc3)ccc2O1	i	-3.9
32	O=C(C[C@@H]1C[C@H]2c3cc(NS(=O)(=O)c4ccccc4)ccc3O[C@H]2[C@H](CO)O1)NC1CCCC1	i	1.2

(listing goes on)
no.	FGF22 binding	AF4-AF9 inh	Molecule
49	i	-8.6	COc1ccccc1NC(=O)N1CCCCN2[C@H](C1)[C@@H](c1ccc(-c3cccc(F)c3)cc1)[C@@H]2CO
50	i	-4.6	CCS(=O)(=O)Nc1ccc2c(c1)C(=O)N(C)[C@@H]1CC[C@H](CC(=O)OC)O[C@@H]1CO2
51	i	0.7	CCCC(=O)Nc1ccc2c(c1)C(=O)N(C)C[C@H](OC)[C@@H](C)CN(C)[C@@H](C)CO2
52	i	3.5	N#C[C@@H]1[C@H](c2ccc(C#CC3CCCCC3)cc2)[C@@H](CO)N1C(=O)Cc1ccccn1
53	i	0.3	CCS(=O)(=O)Nc1ccc2c(c1)C(=O)N(C)[C@H]1CC[C@H](CC(=O)NCCCN3CCOCC3)O[C@@H]1CO2
54	i	-16	COc1ccc(S(=O)(=O)N(C)C[C@H]2OCCCC[C@H](C)Oc3ccc(NC(=O)Nc4ccc(C(F)(F)F)cc4)cc3C(=O)N([C@@H](C)CO)C[C@H]2C)cc1
55	i	1.2	C[C@H](NC(=O)C[C@H]1C=C[C@@H](NS(=O)(=O)c2cccc(F)c2)[C@H](CO)O1)c1ccccc1
56	i	-6.5	C[C@@H]1CN([C@@H](C)CO)C(=O)CCCn2nncc2CO[C@@H]1CN(C)Cc1ccc2cccnc2c1
57	i	-2.2	COc1ccc(NC(=O)Nc2ccc3c(c2)C(=O)N([C@H](C)CO)C[C@H](C)[C@@H](CN(C)C(=O)CCCN(C)C)OCCCC[C@@H](C)O3)cc1
58	i	0.2	O=C(CN1CCOCC1)N[C@@H]1CC[C@@H](CCn2cc(C3CC3)nn2)O[C@H]1CO
59	i	-0.9	C[C@H]1CN([C@@H](C)CO)C(=O)c2cc(C3=CCCC3)cnc2O[C@@H]1CN(C)C(=O)c1ccccc1
60	i	-1.9	C[C@@H]1CN([C@@H](C)CO)C(=O)Cc2cc(NC(=O)Nc3ccccc3)ccc2O[C@H]1CN(C)C(=O)Nc1cccc2ccccc12
61	i	1.0	CC(C)NC(=O)N(C)C[C@H]1Oc2ccc(NC(=O)CCCCCC(=O)Nc3ccccc3N)cc2CC(=O)N([C@@H](C)CO)C[C@H]1C
62	i	0.6	C[C@@H]1CN([C@@H](C)CO)C(=O)c2cc(NC(=O)Nc3ccc(C(F)(F)F)cc3)ccc2O[C@H]1CN(C)Cc1ccc(Cl)c(Cl)c1
63	i	2.5	COc1ccc(CN(C)C[C@@H]2Oc3ccc(NS(=O)(=O)c4ccc(OC)cc4)cc3CC(=O)N([C@H](C)CO)C[C@H]2C)cc1
64	i	1.6	C[C@H](CO)N1C[C@H](C)[C@H](CN(C)Cc2ccc(-c3ccccc3)cc2)Oc2ccc(NC(=O)Nc3ccc4c(c3)OCO4)cc2C1=O
65	i	-0.6	C[C@@H](NC(=O)[C@@H]1[C@@H](CO)[C@@H]2Cn3c(cccc3=O)[C@H]1N2CCC(F)(F)F)c1ccccc1
66	i	-3.6	O=C(NCC[C@H]1CC[C@H](NC(=O)C2CCOCC2)[C@H](CO)O1)c1ccc(F)cc1
67	i	1.5	CO[C@H]1CN(C)C(=O)c2cc(NC(=O)C3CCCC3)ccc2OC[C@@H](C)N(CCC(F)(F)F)C[C@H]1C
68	i	-4.9	CNC[C@@H]1Oc2ccc(NS(=O)(=O)c3cccs3)cc2C(=O)N([C@H](C)CO)C[C@H]1C
69	i	3.2	COCC(=O)Nc1ccc2c(c1)C(=O)N(C)C[C@@H](OC)[C@@H](C)CN(Cc1ccccc1)[C@H](C)CO2
70	i	-2.3	O=C(NCC[C@H]1CC[C@@H](NC(=O)C2CCCCC2)[C@H](CO)O1)c1cnccn1

Screening results deposited in PubChem by Broad Institute.
